Marburg entry inh = Marburg virus entry inhibition; AID 540276; Marburg virus pseudotyped entry inhibition, cell reporter; control for the full effect not named in the record; about a third of the inactives were read at about 46 µM; Potency, µM (top dose mostly 37.8 µM), for inactives: at the top dose activity change, negative = inhibition, hits mostly inhibitors; 300,000 compounds, 1.8% hits; active = well fitted inhibition curve with a large enough effect; inconclusive = small, poorly fitted or top-dose-only effect, or effect the other way; inactive = flat fitted curve, though single readings scatter; tested in HEK293 cells; about a fifth of its hits are not listed in these tables; further: on the % scale 0 is the no-effect control and ±100 the full control effect; luciferase read-out
NS1 function inh = inhibitors of influenza NS1 protein function. Potency, µM (series often up to 46.1 µM), without a hit: top-dose activity, positive = more growth. S. cerevisiae slowed by influenza A NS1, growth recovery by OD600. 270,000 compounds, 0.4% hits; active means well fitted rising curve with a large enough effect; inconclusive means small, poorly fitted or top-dose-only effect; inactive means no such curve, though single readings can be large or run the other way; further: nearly all actives have a fitted effect of over 50% in size
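Read-out: OD600 growth recovery of NS1-expressing budding yeast. Cells grown overnight at 30C in -URA glucose medium, washed, resuspended and diluted 1:100 in 2% galactose assay medium, pH 6.0. Same strain lacking NS1 served as positive control.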
2A StopGo = FMDV 2A StopGo reporter, luciferase signal | human cells with a luciferase reporter of 2A StopGo recoding; control for the full effect not named in the record | Potency, µM (highest dose often 57.9 µM), without a hit: at the top dose signal change, negative = less light | 410,000 compounds, 1.2% hits; active = well fitted falling curve with a large enough effect; inconclusive = small, poorly fitted or top-dose-only effect; inactive = no such curve, though single readings can be large or run the other way; tested in HEK293T cells; further: on the % scale 0 is the no-effect control and ±100 the full control effect; nearly all actives have a fitted effect of over 45% in size; luciferase light after 4 h
Cruzain inh Det = blocks cruzain activity in presence of Triton detergent | Potency, µM, without a hit: max response, negative = inhibition, usual class: inhibitors | 200,000 compounds, 0.43% hits | P25779 | purified cruzain, Z-FR-AMC fluorescence, 0.01% Triton;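 further: plate controls were neutral wells for no effect and buffer without enzyme for full effect; nearly all actives have a fitted effect of over 40% in size; top concentration of the series not given in the record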
Target sequence (P25779 123-467 limits assumed): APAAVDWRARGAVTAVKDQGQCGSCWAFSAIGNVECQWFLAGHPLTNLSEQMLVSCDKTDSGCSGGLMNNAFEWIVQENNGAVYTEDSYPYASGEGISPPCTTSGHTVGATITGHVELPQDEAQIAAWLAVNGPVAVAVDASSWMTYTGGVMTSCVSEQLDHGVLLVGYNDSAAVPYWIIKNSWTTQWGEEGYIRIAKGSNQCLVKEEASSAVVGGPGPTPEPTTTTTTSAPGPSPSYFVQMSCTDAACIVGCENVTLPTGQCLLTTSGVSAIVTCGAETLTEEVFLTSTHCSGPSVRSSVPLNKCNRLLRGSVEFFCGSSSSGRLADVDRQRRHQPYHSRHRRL
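Detergent-containing arm of a paired screen for aggregation-based inhibition: 0.01% Triton X-100 present. Cruzain at 1.5 nM cleaved 2 uM Z-FR-AMC at pH 5.5 with 5 mM DTT; AMC fluorescence gain over 60 s measured activity.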
RE007 growth inh = less growth of the S. pombe RE007 Vpr strain; S. pombe RE007 Vpr strain, BacTiter-Glo ATP luminescence, 24 h; control for the full effect not named in the record; Potency, µM (titrated, usually from 92.2 µM), for inactives: top-dose activity change, negative = less growth; 360,000 compounds, 0.21% hits; AID 651644; active = well fitted falling curve with a large enough effect; inconclusive = small, poorly fitted or top-dose-only effect; inactive = no such curve, though single readings can be large or run the other way;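 further: on the % scale 0 is the no-effect control and ±100 the full control effect; nearly all actives have a fitted effect of over 50% in size; the assay follows cell death caused by Vpr and the record does not say whether a fall means rescue or toxicity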
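Fission yeast strain RE007, carrying one chromosomally integrated HIV-1 vpr copy, was seeded at OD 0.01 in PMG+AL medium with 23 nL pinned compound. After 24 h at 30 °C and 99% humidity, viability was read by BacTiter-Glo luminescence.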
Cruzain noTriton = blocks cruzain activity in detergent-free assay. P25779. purified cruzain, Z-FR-AMC fluorescence, no detergent. Potency, µM, inactives show max response, negative = inhibition, most hits filed as inhibitors. 200,000 compounds, 2.3% hits;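 further: plate controls were enzyme without inhibitor for no effect and buffer without enzyme for full effect; nearly all actives have a fitted effect of over 40% in size; top concentration of the series not given in the record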
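Purified cruzain at 1.5 nM, pre-incubated 15 min with compound at room temperature in 100 mM sodium acetate pH 5.5, 5 mM DTT, 0.00005% Triton X-100. Reaction started with 2 uM Z-FR-AMC; AMC fluorescence increase over 60 s gives rate.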
SARS PLpro yeast = blocks SARS-CoV papain-like protease in a yeast assay; Potency, µM (titrated, usually from 32.9 µM), inactives show at the highest dose activity, positive = growth rescue; S. cerevisiae expressing SARS-CoV PLpro, growth rescue; control for the full effect not named in the record; AID 485353; 330,000 compounds, 0.19% hits; active means well fitted rising curve with a large enough effect; inconclusive means small, poorly fitted or top-dose-only effect; inactive means no such curve, though single readings can be large or run the other way; further: 0% is about no effect; nearly all actives have a fitted effect of over 55% in size; growth read by luminescence after 48 h
LASV entry inh = Lassa virus entry inhibition; Lassa virus pseudotype entry inhibition, cell reporter; control for the full effect not named in the record; Potency, µM (highest dose often 37.9 µM), inactives show top-dose activity change, negative = inhibition, usual class: inhibitors; 300,000 compounds, 1.2% hits; AID 540256; active means well fitted inhibition curve with a large enough effect; inconclusive means small, poorly fitted or top-dose-only effect, or effect the other way; inactive means flat fitted curve, though single readings scatter; tested in HEK293 cells; further: on the % scale 0 is the no-effect control and ±100 the full control effect; nearly all actives have a fitted effect of over 50% in size; luciferase read-out
* hit, by the source's call; ? = inconclusive; . = not tested or not shown; & = joins results of further samples; [ ] = remark or other dose. Unless noted, the call rests on the fitted dose curve; in most records, active means well fitted curve in the direction sought with a large enough effect; inconclusive means small, poorly fitted or top-dose-only effect, or another doubt; inactive means no such curve, though single readings can be large; an effect the other way counts as inactive or inconclusive. Potency means the concentration at half of the fitted maximal effect.

SMILES	Marburg entry inh	NS1 function inh	2A StopGo	Cruzain inh Det	RE007 growth inh	Cruzain noTriton	SARS PLpro yeast	LASV entry inh
Cc1ccc(CCNC(=O)c2ccc3c(c2)nc2n3CCOC2)cc1	.	.	14%	2.4%	.	-11%	.	2%[46.1 µM]
CN1C(=O)C(C2c3ccccc3C(=O)N2Cc2ccc([N+](=O)[O-])cc2)C(=O)N(C)C1=O (stereo not drawn)	-1%	-5%	-22%	1.1%	1%	-1%	-4%	-23%
O=C(Nc1cccnc1)c1ccc(NS(=O)(=O)c2cccc([N+](=O)[O-])c2)cc1	-11%[46.1 µM]	.	-1%	.	8%	.	-1%	6%[46.1 µM]
COc1ccc(OC)c(NC(=O)COC(=O)COc2ccc(Nc3ccccc3)cc2)c1	19%	.	-7%	.	-25%	.	-16%	2%
Cc1nc(S(=O)(=O)N2CCN(C3c4ccccc4-c4ccccc43)CC2)cn1C	-21%[46.1 µM]	-9%	-25%	.	8%	.	0%	-15%[46.1 µM]
C=CCOc1c2ccc(C(=O)NCc3ccc(OC)cc3)cc2nn1C	.	4%	-15%	4.3%	10%	10%	-4%	.
COC(=O)C1CSC(C)(C)C(=O)N1 (stereo not drawn)	.	3%	7%	.	4%	.	0%	.
COc1ccc(C(=O)CC(=O)C(=O)Nc2cc(OC)ccc2OC)cc1	6%[46.1 µM]	4%	-12%	.	-17%	.	3%	-18%
COc1ccc(-c2cc(C(F)(F)F)nc(SCCC(=O)Nc3cccc(OC)c3)n2)cc1	?	.	6%	-6.4%	.	-5%	.	-5%[46.1 µM]
COc1cc(S(=O)(=O)N2CCCC3(CCCCC3)C2)ccc1-n1cnnn1	-22%	-37%	-17%	-0.2%	?	?	5%	-6%
CC(C(=O)Nc1ccc(Br)cc1C(=O)c1ccccc1)N1CCOCC1 (stereo not drawn)	-2%	-51%	6%	1.7%	9%	17%	-1%	13%
CN1C(=O)Cc2cc(S(=O)(=O)CCC(=O)Nc3ccc(Cl)c(C(F)(F)F)c3)ccc21	.	.	-14%	-1.1%	.	-26%	.	3%[46.1 µM]
O=C(Cc1ccc(Br)cc1)N1CCN(c2ccccn2)CC1	7%	-10%	8%	-5.0%	-6%	-1%	5%	4%
COc1ccc(-c2csc(NC(=O)CN3C(=O)CCC3=O)n2)cc1OC	?	-5%	?	0.7%	5%	-2%	12%	14%
O=c1c2ccccc2nc(/C=C/c2c[nH]c3ccccc23)n1CCO	-7%[46.1 µM]	-2%	0%	.	-8%	.	0%	?
COc1ccc(C(C(=O)NCCC(C)C)N(CCCO)C(=O)c2snc(C(N)=O)c2N)cc1OC (stereo not drawn)	.	?	6%	.	-19%	.	3%	.
Cc1cc(NCc2ccco2)n2c(nc3ccccc32)c1C#N	-25%	8%	-23%	-2.9%	11%	17%	10%	-17%
O=C(/C=C/c1ccccc1)OCC(=O)c1c[nH]c2ccccc12	-17%[46.1 µM]	.	46%[activator]	.	5%	.	-4%	-3%[46.1 µM]
O=C(CSc1nnc(-c2ccco2)o1)N1CCCCC1	?	6%	16%	.	-24%	.	-1%	-18%[46.1 µM]
COc1ccccc1Nc1ncnc2ccc(C)cc12	2%	-7%	-10%	0.6%	?	-2%	.	-4%
CC1=C(c2ccc(C)c(C)c2)S(=O)(=O)N=C1N1CCC(C(=O)N2CCC(C)CC2)CC1	.	.	-16%	-3.2%	.	4%	.	-1%[46.1 µM]
COc1ccc(OC)c(-c2cnc(OC(C)(C)C)nc2OC(C)(C)C)c1	-33%	3%	?	-6.9%	-2%	-4%	4%	?
CCOCC(=O)OCC(=O)NC12CC3CC(CC(C3)C1)C2	16%[46.1 µM]	.	38%[activator]	.	8%	.	-3%	14%[46.1 µM]
Cc1ccc(C(C)C)cc1OCC(=O)N/N=C/c1ccc2c(c1)OCCO2	?	-6%	?	-14%	19%	8%	-57%	1.1µM*
COc1ccc(CN(C)S(=O)(=O)c2nnc(NC(=O)c3cccc(OC)c3)s2)cc1	-2%[46.1 µM]	8%	4%	.	11%	.	3%	3%[46.1 µM]
(listing goes on)
SMILES	Marburg entry inh	NS1 function inh	2A StopGo	Cruzain inh Det	RE007 growth inh	Cruzain noTriton	SARS PLpro yeast	LASV entry inh
COc1ccc2[nH]c3c(c2c1)CCN1C(=O)C(CC(=O)NCc2ccc(OC)c(OC)c2)C[C@H](C(=O)N2CCOCC2)[C@@]31C (stereo partly drawn)	2%	.	-18%	.	-2%	.	19%	.
Cc1cc(NC(=O)COc2ccc(Cl)cc2Cl)n(CCC#N)n1	-15%	-3%	.	-5.7%	-1%	7%	-5%	-8%
COc1ccc(NC(=O)CSC2=Nc3ccccc3C3=NC(CCC(=O)NC4CCCCC4)C(=O)N23)cc1Cl (stereo not drawn)	0%[46.1 µM]	.	-7%	-0.5%	.	-2%	.	-9%[46.1 µM]
Cn1cc(Br)c(C(=O)NC2CCCCCC2)n1	.	-18%	15%	.	-8%	.	12%	.
Cn1c(C(=O)N2CCCC(C(=O)O)C2)cc2sccc21 (stereo not drawn)	0%	2%	-10%	4.9%	0%	3%	-4%	11%
O=C(Oc1ccccc1C(=O)Nc1ccccc1)c1ccc(Br)c([N+](=O)[O-])c1	?	-41%	-6%	-11%	-17%	?	-76%	0%
Cc1ccc(C(=O)CSc2nnc(-c3c[nH]c4ccccc34)o2)cc1	?	7%	-11%	2.6%	-6%	?	0%	?
Cc1c(C)n(C)c2ccc(C(=O)NCCCN3CCCC3)cc12	.	12%	-9%	.	-6%	.	-6%	.
CCn1c(COc2ccc(C)cc2)nnc1SCc1ccc(C#N)cc1	-7%	-141%	-8%	-0.3%	0%	-4%	-11%	2%
NC(=O)c1cnn2c(C(F)(F)F)cc(-c3ccc(F)cc3)nc12	7%	-2%	-5%	-1.0%	29%	7%	-1%	7%
Cc1c(NC(=O)CSc2nnc(C(C)Oc3ccc(Cl)cc3)n2-c2ccccc2)c(=O)n(-c2ccccc2)n1C (stereo not drawn)	?	27%	-17%	3.5%	1%	?	-3%	-3%
Brc1cccc(-c2nnn3c2nc(N2CCCCC2)c2ccccc23)c1	16%[46.1 µM]	.	0%	-0.9%	.	0%	.	26%[46.1 µM]
Cc1oc(-c2ccccc2Cl)nc1CN1CCCCC1CO (stereo not drawn)	.	-4%	-8%	.	-4%	.	0%	.
Cc1c(NC(=O)c2cc(-c3cccs3)nc3ccccc23)c(=O)n(-c2ccccc2)n1C	.	6%	?	-5.9%	-2%	3%	-11%	-18%
O=C(CN1CCN(c2cccc(Cl)c2)CC1)Nc1ccc(S(=O)(=O)N2CCOCC2)cc1	?	-26%	-22%	.	-5%	.	5%	?
Cn1c(NCC2CCCO2)nc2c1c(=O)n(Cc1ccccc1)c(=O)n2C (stereo not drawn)	0%	-13%	.	-2.9%	4%	-5%	2%	2%
CCOC(=O)C1=C(COC(=O)CCCOc2ccccc2)NC(=O)NC1C (stereo not drawn)	2%	.	-10%	.	0%	.	0%	3%
Cc1[nH]c2c(C)cccc2c1CCNC(=O)c1cc2ccccc2oc1=O	-3%[46.1 µM]	.	-27%	-2.9%	.	-8%	.	19%[46.1 µM]
O=C(Nc1ccccc1Cl)c1cc(S(=O)(=O)N2CCOCC2)cs1	20%	-2%	-16%	4.6%	3%[3.69 µM]	-3%	7%	3%
Cc1cccc(Oc2ccc(N)cc2)c1	23%	-4%	0%	1.2%	-10%	2%	13%	-1%
CCC1CCCCN1C(=O)Cn1c(C(=O)OC)cc2sc(Cl)cc21 (stereo not drawn)	0%	-3%	-16%	5.5%	-8%	-8%	-9%	-25%
COc1ccc(CC2(CO)CCN(S(=O)(=O)c3c(C)nn(C)c3Cl)CC2)cc1	0%[46.1 µM]	-8%	-2%	.	-14%	.	-1%	13%[46.1 µM]
COCCN(C(=O)CSc1nnc(-c2ccccc2OC)o1)c1c(N)n(CC(C)C)c(=O)[nH]c1=O	5%	.	-11%	.	4%	.	-3%	0%
Nc1ccc(S(=O)(=O)NN=CC=Cc2ccccc2[N+](=O)[O-])cc1	?	.	2%	.	-4%	.	.	?
O=C(Nc1cccc(NC(=O)c2ccco2)c1)c1ccc2c(c1)OCO2	15%	-34%	18%	1.9%	-10%	-4%	2%	3%
Following part
SMILES	Marburg entry inh	NS1 function inh	2A StopGo	Cruzain inh Det	RE007 growth inh	Cruzain noTriton	SARS PLpro yeast	LASV entry inh
CCC(Sc1nncn1C)C(=O)Nc1ccccc1OC (stereo not drawn)	0%	0%	12%	5.3%	-12%	12%	7%	-1%
CCc1n[nH]c(=S)n1/N=C/c1cccc2ccccc12	0%	7%	-2%	.	-9%	.	0%	15%
O=C(CCCn1nnc2ccccc2c1=O)N[C@@H](Cc1ccccc1)C(=O)O	12%[46.1 µM]	4%	0%	.	16%	.	1%	-8%
NC(=S)Nc1ccccc1Br	4%	1%	0%	.	27%	.	0%	18%
O=C(Nc1ccc(Br)cc1F)N1CC=C(c2c[nH]c3ccccc23)CC1	.	.	-8%	-10%	.	3%	.	3%[46.1 µM]
COc1ccc(CNC(=O)CCN2C(=O)c3ccccc3C2=O)cc1OC	15%[46.1 µM]	5%	-7%	.	-2%	.	-8%	1%[46.1 µM]
Cc1ccc(C(=O)OCC(=O)Nc2ccc3[nH]c(=O)[nH]c3c2)cc1[N+](=O)[O-]	-4%	4%	2%	.	5%	.	0%	1%
CCCCn1c(SCC(=O)Nc2cccc(OC)c2)nc2ccsc2c1=O	.	.	-15%	-2.5%	.	6%	.	-30%[46.1 µM]
O=C(NCc1ccco1)c1ccc(Cn2c(=O)c3sccc3n(Cc3ccc(F)cc3)c2=O)cc1	1%	29%	-18%	6.8%	16%	?	-3%	.
CN(Cc1ccccc1F)C(=O)c1ccc(NC(=O)CC2SC(N3CCCCC3)=NC2=O)cc1 (stereo not drawn)	-2%	.	38%[activator]	.	-19%	.	.	6%
O=C(O)CCSc1ccccn1	-7%[46.1 µM]	1%	-8%	.	-17%	.	1%	16%[46.1 µM]
O=C(O)CCC(=O)c1ccc2c(c1)OCCCO2	14%&14%	-10%	0%	1.6%	-8%	13%	10%	5%

Screening results as filed in PubChem.
